Source: PubChem
Mtb bLac sens: beta-lactam sensitization of Mtb H37Rv; M. tuberculosis H37Rv growth with meropenem, percent inhibition; hits of this screen are not shown here; inhibition, % at 25 µM; 330,000 compounds, 0.27% hits;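 active = about 74% or more and at least 40 points above the plate without the antibiotic, then above 30% in a dose series; inconclusive = first-round hits that could not be retested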;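 also: growth measured after seven days incubation then overnight dye step; 0% = bacteria only wells and 100% = bacteria with antibiotic; twin plates without the antibiotic show which effects depend on it; some results filed as inactive read as strong as hits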
YopH inh: blocks Yersinia enterocolitica YopH tyrosine phosphatase | inhibition, %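 (about 10 µM by stock and volumes)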 | fluorescence Ex485/Em525 | 140,000 compounds, 0.16% hits;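 active = inhibition of 50% or more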;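 also: controls were vehicle for no effect and minimum signal wells for full effect; inactives centre near -20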
Mtb H37Rv: M. tuberculosis H37Rv growth inhibitors, H37Rv strain (AID 1626); M. tuberculosis H37Rv growth inhibition; higher % means a stronger effect; inhibition, % at 10 µM; hits with a dose series show IC50 in µM; 220,000 compounds, 0.95% hits;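 active = confirmed in a dose series; inconclusive = inhibition above 80% but not taken into the dose series; inactive = below 80% or under 30% at every dose of the series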;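 also: bacteria incubated seven days before Alamar blue readout; 0% = bacteria only wells and 100% = bacteria with antibiotic wells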
Arbovirus anti: arbovirus infection inhibition; 200,000 compounds, 0.37% hits; AID 1251; inhibition, % at 10 µM; arbovirus infection cell-based antiviral screen;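 active = inhibition from about 30%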;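 also: bluetongue infection of BSR cells; cell survival read as ATP light after 72 h; 0% = infected wells without compound and 100% = uninfected wells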
RecA intein inh: inhibitors of M. tuberculosis RecA intein splicing. 290,000 compounds, 0.75% hits. P9WHJ3. cell-free RecA intein splicing, fluorescence. inhibition, %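 (about 9 µM by stock and volumes)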; in the data active = inhibition above about 30%; inconclusive = no clear call, values can overlap the other calls;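 also: 0% = vehicle wells and 100% = reference inhibitor control wells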
Target sequence (P9WHJ3 whole entry, looked up): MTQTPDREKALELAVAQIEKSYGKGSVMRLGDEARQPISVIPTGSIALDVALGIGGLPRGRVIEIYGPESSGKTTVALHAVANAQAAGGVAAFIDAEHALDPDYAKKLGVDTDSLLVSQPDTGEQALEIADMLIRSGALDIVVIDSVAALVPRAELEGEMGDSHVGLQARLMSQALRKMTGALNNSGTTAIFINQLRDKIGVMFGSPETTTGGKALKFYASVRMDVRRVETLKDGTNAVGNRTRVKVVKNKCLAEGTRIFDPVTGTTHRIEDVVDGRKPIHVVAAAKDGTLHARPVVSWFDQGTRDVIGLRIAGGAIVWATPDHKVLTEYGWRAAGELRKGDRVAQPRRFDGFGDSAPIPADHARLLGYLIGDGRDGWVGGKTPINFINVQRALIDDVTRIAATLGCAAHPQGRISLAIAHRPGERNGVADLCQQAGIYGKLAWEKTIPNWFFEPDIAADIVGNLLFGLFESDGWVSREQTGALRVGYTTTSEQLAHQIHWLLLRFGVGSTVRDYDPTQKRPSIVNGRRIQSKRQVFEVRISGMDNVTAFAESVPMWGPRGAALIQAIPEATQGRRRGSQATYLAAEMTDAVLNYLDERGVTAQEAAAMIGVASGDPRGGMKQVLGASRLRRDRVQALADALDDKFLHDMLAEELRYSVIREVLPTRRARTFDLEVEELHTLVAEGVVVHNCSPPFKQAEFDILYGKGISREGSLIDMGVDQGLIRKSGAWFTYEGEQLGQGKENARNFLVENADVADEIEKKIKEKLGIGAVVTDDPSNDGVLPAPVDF
Arbovirus anti repeat: recorded beside Arbovirus anti, whose call it bears; inhibition, %; measured here: 10K subset replicate screen; many hits read low in the repeat;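 first of two repeat runs on a subset; 0% = infected and 100% = uninfected wells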
The depositor's hits bear a star; ? = inconclusive; / = not tested or not shown. Not all compounds are listed (hit frequency here may not be typical).

SMILES	Mtb bLac sens	YopH inh	Mtb H37Rv	Arbovirus anti	RecA intein inh	others
Brc1ccc(-c2nn3c(-c4ccccn4)nnc3s2)o1	?	-51	0%	3	-2.8
O=C1c2cccnc2C(O)N1Cc1ccccc1 (stereo not drawn)	-22	-17	-5%	-5	1.1
Cc1ccc(S(=O)(=O)N2CCCOC2CNC(=O)C(=O)NCc2cccs2)cc1 (stereo not drawn)	1	-22	1%	-10	2.9
N#Cc1nc(COc2ccccc2)oc1NCCCn1ccnc1	5	8	/	2	/
Cc1cc(C(=O)Nc2cccc([N+](=O)[O-])c2)c(C)o1	1	-41	4%	-1	2.1
COc1cc(OC)c(OC)cc1CN1CCCC(C(=O)N2CCCC2)C1 (stereo not drawn)	-2	/	/	/	0.2
COC(=O)C1=C(C)Nc2ncnn2C1c1ccc(C)o1 (stereo not drawn)	?	-24	1%	1	2.9	Arbovirus anti repeat=2
CN(C)S(=O)(=O)N1CCN(CC(O)COc2ccc(-c3ccccc3)cc2)CC1 (stereo not drawn)	3	/	/	/	0.5
COc1ccc(Cn2c(=S)[nH]c3cc(C(=O)NCCCN4CCOCC4)ccc3c2=O)cc1	-1	/	/	/	4.9
CCCN1C(=O)c2cc(C(=O)NC3CCCC3)ccc2C1O (stereo not drawn)	1	-39	1%	5	/	Arbovirus anti repeat=2
Cc1cc(=O)[nH]c(Nc2cccc(C(F)(F)F)c2)n1	4	-46	0%	20	-2.4
CC(C)C(=O)NC(=O)[C@@H]1CCCN1C(=O)/C=C/c1ccccc1	-4	-22	1%	-1	-2.2
O=C(NCc1ccco1)C1CCCN(S(=O)(=O)c2ccc(-n3cnnn3)cc2)C1 (stereo not drawn)	0	-30	4%	2	0.3
COc1ccc(NC(=O)CN(C)C(=O)c2cc3c(cc2Cl)N2CCCCCC2=NS3(=O)=O)cc1	-3	/	/	/	12
Cc1ccc(CN2CCN(Cc3cccn3-c3ccccn3)CC2CCO)o1 (stereo not drawn)	-6	/	2%	3	-0.9
COc1ccc(N/N=C/c2c(C(=O)O)ccc3ccccc23)cc1	-7	/	12%	/	-4.3
Cc1cccc(N2CCN(C(=O)c3ccncc3)CC2)c1C	0	-2	3%	1	1.8
CNC(=O)CN(c1ccc2c(c1)OCCO2)S(C)(=O)=O	/	-6	-6%	5	-0.6
COc1ccc(OC)c(C2CC(=O)N3CN(c4cccc(Cl)c4)CSC3=C2C#N)c1 (stereo not drawn)	-2	-39	0%	2	3.7	Arbovirus anti repeat=2
COC(=O)C1=C(C)N=c2s/c(=C/c3cccs3)c(=O)n2C1c1ccc(F)cc1 (stereo not drawn)	9	-73	-6%	-6	-3.7
C/C(=N/NS(=O)(=O)c1ccc(C)cc1C)c1c[nH]c2ccccc12	7	/	/	/	-1.9
Cc1cc(S(=O)(=O)N2CCOCC2)ccc1OCC(=O)Nc1ccc(F)c(Cl)c1	6	/	/	/	0.0
CCOC(=O)c1ccc(C(=O)NNC(=O)C2C3C=CC(C3)C2C(=O)O)cc1 (stereo not drawn)	-4	/	/	/	-1.9
CCC(=O)Nc1ccc(S(=O)(=O)Nc2nccs2)cc1	1	/	/	/	0.9
Cc1ccc2c(C)c(C(=O)N3CCC(O)(c4ccccc4)CC3)oc2c1C	67	/	/	/	9.2

(next part)
SMILES	Mtb bLac sens	YopH inh	Mtb H37Rv	Arbovirus anti	RecA intein inh	others
CCC(=O)N1CCc2cc(S(=O)(=O)CCC(=O)N3CCCC(C)C3)ccc21 (stereo not drawn)	3	/	/	/	-7.0
Cc1ccc(S(=O)(=O)N[C@@H](Cc2ccccc2)C(=O)N2CCC(C(=O)N[C@H](C(=O)O)C(C)O)CC2)cc1 (stereo partly drawn)	-9	/	/	/	-1.7
CNS(=O)(=O)c1ccc(NCC2COc3ccccc3O2)c([N+](=O)[O-])c1 (stereo not drawn)	4	-11	12%	-3	-2.6
C/C(=N\Nc1nc2ccccc2[nH]1)c1ccc(C)o1	5	-16	?	15	5.7
COc1ccc(OC)c(S(=O)(=O)n2nc(C)cc2C)c1	5	-3	-4%	0	/
COc1cccc(CN(C)C(=O)[C@@H](NC(=O)c2ccc(C)cc2)C(C)C)c1	-3	/	/	/	0.1
COc1ccc(C(=O)Nc2ccc(N3CCOCC3)cc2)cc1S(=O)(=O)NC1CCCC1	-12	/	-9%	-5	6.0
C=CCN1C(=O)/C(=C2/C(=O)N(CC(=O)O)c3ccccc32)S/C1=N/c1nccs1	/	9	/	3	20
Cc1ccc(Nc2nc3c(c(=O)[nH]c(=O)n3C)n2Cc2ccc(F)cc2)cc1	4	-5	2%	6	4.6
O=C(CSCc1cnn(-c2ccccc2)c1-n1cccc1)NCC1CCCO1 (stereo not drawn)	-12	-1	-6%	-2	1.4
Cc1ccc(CC(=O)Nc2nncs2)cc1	4	30	2%	-3	-1.7
CC(C)Cc1nnc(NC(=O)c2cc(-c3ccncc3)nc3ccccc23)s1	23	/	-3%	/	0.2
O=C(Oc1c(Cl)cc(Cl)c2ccccc12)N1CCCCC1	95	-5	12%	10	13
O=C(CSc1nnc(CNC(=O)c2c(F)cccc2Cl)o1)NCc1ccc2c(c1)OCO2	-8	-4	-2%	-3	0.9
CCOC(=O)CC(=O)CSc1nnc2c(n1)[nH]c1ccccc12	3	7	-3%	8	-1.7
Cc1nc(CNS(=O)(=O)c2cc(F)ccc2F)cs1	-1	7	11%	5	-5.3
COc1cc(OC)cc(C(=O)NNc2nc3cc4c(cc3s2)OCO4)c1	3	-25	72%	-7	-7.6
Cn1c(SCC(=O)c2c(N)n(C)c(=O)n(C)c2=O)nnc1-c1ccc(F)cc1	?	-19	-9%	5	0.5
CC(=O)NS(=O)(=O)c1ccc(NC(=O)C2c3ccccc3Oc3ccccc32)cc1	-4	-30	-13%	1	2.6
CC1(C)CCc2cc(-c3ccnc(=S)[nH]3)ccc2O1	2	/	2%	/	-0.3
O=C(N/N=C/c1c(Cl)cccc1Cl)c1ccc(F)cc1	4	-39	-3%	1	-1.2
C=CCNC(=O)C(C(=O)OCC)C1CCCCC1 (stereo not drawn)	-1	-16	-1%	0	-2.3
COC(=O)NCC(c1cccnc1)N1CCN(c2ccccc2F)CC1 (stereo not drawn)	-7	-37	38%	-1	1.2	Arbovirus anti repeat=0
O=C(NN=C1CCCC1)c1ccn[nH]1	0	-31	-5%	3	-0.4
CCN(CC)CCN(C(=O)c1ccc2c(c1)OCCO2)c1nc2cc3c(cc2s1)OCO3	2	/	/	/	-2.5

(next part)
SMILES	Mtb bLac sens	YopH inh	Mtb H37Rv	Arbovirus anti	RecA intein inh	others
O=C(CCCn1cnc2ccccc2c1=O)Nc1ccccc1F	-6	/	/	/	0.6
Cc1cccc(C(=O)OCC(=O)c2ccc3c(c2)OCO3)c1O	?	/	/	/	3.1
CN(C)C(=O)Cn1c(SCC(=O)NC2CCCCC2)nc2ccccc21	3	-12	-2%	-2	-1.6
CCN1C(=O)/C(=C2/Sc3ccccc3N2CC)SC1=S	3	/	/	/	-3.4
CCOC(=O)C1=C(C)NC(SC(C)=O)=NC1c1ccc(OC(C)=O)c(OC)c1 (stereo not drawn)	-5	-16	5%	7	2.8
N#Cc1ccccc1NC(=S)NC(=O)c1cccnc1	1	/	/	/	-0.2
O=C(NN1C(=O)c2ccccc2NC1c1cccnc1)c1ccccc1 (stereo not drawn)	0	/	8%	3	-0.4
CCn1c(NC(=O)c2ccccc2)nc2ccccc21	100	/	1.7µM*	/	3.8
COc1cccc(NC(=O)CSc2ccccn2)c1	5	-26	-1%	-12	-4.0
COc1ccc(C(=O)Nc2ccnn2C2CCN(CC3CC=CCC3)CC2)cc1 (stereo not drawn)	1	/	/	/	-0.4
COc1ccc(C(=O)n2c(-c3ccco3)nc3ccccc32)cc1	-6	-32	3%	-21	8.0
CCOc1cc(CN2CCN(c3ncccn3)CC2)ccc1OC	-7	/	/	/	-1.7
O=C(O)CC(SCc1ccc(C(=O)O)o1)C(=O)O (stereo not drawn)	9	-48	5%	5	-0.9
CCc1nnc(NC(=O)CCC(=O)NCC2CCCO2)s1 (stereo not drawn)	-6	-24	-4%	1	0.9
O=C(NCc1ccccc1F)c1cccs1	/	-39	2%	-4	1.4
O=C(Cc1ccccc1F)Nc1cc(Cl)ccc1N1CCCC1	2	/	/	/	3.3
COc1ccccc1N1CCN(Cc2cc(Br)c(O)c3ncccc23)CC1	11	-39	13%	-20	6.2	Arbovirus anti repeat=-15
O=C1c2[nH]nc(-c3ccccc3O)c2C(c2cccc(Cl)c2)N1CC1CCCO1 (stereo not drawn)	-7	-53	/	25	14
CN(C)CCN=Cc1c(O)n(-c2cccc3ccccc23)c(=O)[nH]c1=O	9	7	-5%	5	-0.6
O=C(O)c1cn(Cc2ccccc2)c2ccccc2c1=O	-3	-40	4%	2	-0.9
CN/C=C(/Cl)P(=O)(OC(C)C)OC(C)C	-5	/	/	/	-0.1
CC(Oc1ccc2ccc(=O)oc2c1)C(=O)NCC1CCC(C(=O)O)CC1 (stereo not drawn)	-5	/	/	/	-1.3
Cc1ccc(N2C(=O)c3ccccc3NC2c2ccccc2O)cc1 (stereo not drawn)	5	/	/	/	-1.2
Cc1c(Cl)cccc1N=C(N)N=C(N)N	-8	/	3%	14	-1.6
C/C(O)=C(/C=Nc1ccccc1)C(=O)Nc1ccccc1	-1	/	3%	20	0.5

Three structures from above, sorted by heavy-atom count, ascending:
SMILES	Mtb bLac sens	YopH inh	Mtb H37Rv	Arbovirus anti	RecA intein inh	others
COc1cccc(NC(=O)CSc2ccccn2)c1	5	-26	-1%	-12	-4.0
N#Cc1ccccc1NC(=S)NC(=O)c1cccnc1	1	/	/	/	-0.2
O=C(Cc1ccccc1F)Nc1cc(Cl)ccc1N1CCCC1	2	/	/	/	3.3

Going on with the list:
SMILES	Mtb bLac sens	YopH inh	Mtb H37Rv	Arbovirus anti	RecA intein inh	others
N#Cc1ccc(C(=O)NCC(c2ccco2)N2CCCCC2)cc1 (stereo not drawn)	1	16	-3%	10	-2.4
CCN(CC(=O)Nc1ccccc1C(F)(F)F)C(=O)Cn1c(=O)cnc2ccccc21	1	/	/	/	1.8
C=CCc1cc(Cl)ccc1OC(=O)Nc1cccc(Cl)c1	-5	/	-3%	/	0.4
COC1(OC)N=C(N)C2(C#N)C(c3ccc(C)cc3)C12C#N (stereo not drawn)	-20	-30	-7%	-2	-5.2
CCN1CCN(C(c2cc(OC)c(OC)c(OC)c2)c2nnnn2C(C)C)CC1 (stereo not drawn)	-11	-27	-2%	2	2.6
CC(C)c1cc(C(=O)N2CCCC(Nc3ccc(F)cc3)C2)n[nH]1 (stereo not drawn)	?	/	/	/	-3.7
O=c1[nH]cnc2c1C1(CCCC1)Cc1ccccc1-2	-1	-78	3%	17	0.4
Cc1cc(C)c2nc3s/c(=C/c4ccccc4)c(=O)n3c2c1	/	-15	9%	-3	/
CCOc1ccc(NC(=O)c2ccc(N3CC4CC(C3)c3cccc(=O)n3C4)c(N)c2)cc1 (stereo not drawn)	56	/	/	/	1.3
CCOc1ccccc1N1CCN(CC(=O)NC(=O)NCc2ccco2)CC1	-13	/	-1%	15	-1.7
CCN1C(=O)/C(=C/C=C2/Sc3ccccc3N2CCO)SC1=S	47	/	35%	-13	-1.4
COc1ccc2[nH]cc(C(=O)CN3CCN(C/C=C/c4ccccc4)CC3)c2c1	/	-29	22%	1	/

Molecules from the list above with a Cl atom (eleven):
SMILES	Mtb bLac sens	YopH inh	Mtb H37Rv	Arbovirus anti	RecA intein inh	others
COc1ccc(NC(=O)CN(C)C(=O)c2cc3c(cc2Cl)N2CCCCCC2=NS3(=O)=O)cc1	-3	/	/	/	12
COc1ccc(OC)c(C2CC(=O)N3CN(c4cccc(Cl)c4)CSC3=C2C#N)c1 (stereo not drawn)	-2	-39	0%	2	3.7	Arbovirus anti repeat=2
Cc1cc(S(=O)(=O)N2CCOCC2)ccc1OCC(=O)Nc1ccc(F)c(Cl)c1	6	/	/	/	0.0
O=C(Oc1c(Cl)cc(Cl)c2ccccc12)N1CCCCC1	95	-5	12%	10	13
O=C(CSc1nnc(CNC(=O)c2c(F)cccc2Cl)o1)NCc1ccc2c(c1)OCO2	-8	-4	-2%	-3	0.9
O=C(N/N=C/c1c(Cl)cccc1Cl)c1ccc(F)cc1	4	-39	-3%	1	-1.2
O=C(Cc1ccccc1F)Nc1cc(Cl)ccc1N1CCCC1	2	/	/	/	3.3
O=C1c2[nH]nc(-c3ccccc3O)c2C(c2cccc(Cl)c2)N1CC1CCCO1 (stereo not drawn)	-7	-53	/	25	14
CN/C=C(/Cl)P(=O)(OC(C)C)OC(C)C	-5	/	/	/	-0.1
Cc1c(Cl)cccc1N=C(N)N=C(N)N	-8	/	3%	14	-1.6
C=CCc1cc(Cl)ccc1OC(=O)Nc1cccc(Cl)c1	-5	/	-3%	/	0.4
